# Bioassay records deposited in PubChem by several laboratories.
# Mtb bLac sens: beta-lactam sensitization of Mtb H37Rv. M. tuberculosis H37Rv growth with meropenem, percent inhibition; hits of this screen are not shown here. inhibition, % at 25 µM. 330,000 compounds, 0.27% hits;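 active = about 74% or more and at least 40 points above the plate without the antibiotic, then above 30% in a dose series; inconclusive = first-round hits that could not be retested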;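 note: growth measured after seven days incubation then overnight dye step; 0% = bacteria only wells and 100% = bacteria with antibiotic; twin plates without the antibiotic show which effects depend on it; some results filed as inactive read as strong as hits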
# YopH inh: YopH (Yersinia) phosphatase inhibition; fluorescence Ex485/Em525; inhibition, %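 (about 10 µM by stock and volumes)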; 140,000 compounds, 0.16% hits; AID 898;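 active = inhibition of 50% or more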;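 note: controls were vehicle for no effect and minimum signal wells for full effect; inactives centre near -20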
# Mtb growth: M. tuberculosis H37Rv growth inhibitors, H37Rv strain (AID 1626). 220,000 compounds, 0.95% hits. inhibition, % at 10 µM; hits with a dose series show IC50 in µM. M. tuberculosis H37Rv growth inhibition; higher % means a stronger effect;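 active = confirmed in a dose series; inconclusive = inhibition above 80% but not taken into the dose series; inactive = below 80% or under 30% at every dose of the series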;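 note: bacteria incubated seven days before Alamar blue readout; 0% = bacteria only wells and 100% = bacteria with antibiotic wells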
# Arbovirus inh: blocks arbovirus infection. arbovirus infection cell-based antiviral screen. inhibition, % at 10 µM. 200,000 compounds, 0.37% hits. AID 1251;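 active = inhibition from about 30%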;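 note: bluetongue infection of BSR cells; cell survival read as ATP light after 72 h; 0% = infected wells without compound and 100% = uninfected wells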
# RecA splice inh: inhibitors of M. tuberculosis RecA intein splicing; P9WHJ3; cell-free RecA intein splicing, fluorescence; inhibition, %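 (about 9 µM by stock and volumes)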; 290,000 compounds, 0.75% hits; AID 2221; in the data active = inhibition above about 30%; inconclusive = no clear call, values can overlap the other calls;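 note: 0% = vehicle wells and 100% = reference inhibitor control wells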
# Target sequence (P9WHJ3 whole entry, looked up, canonical isoform): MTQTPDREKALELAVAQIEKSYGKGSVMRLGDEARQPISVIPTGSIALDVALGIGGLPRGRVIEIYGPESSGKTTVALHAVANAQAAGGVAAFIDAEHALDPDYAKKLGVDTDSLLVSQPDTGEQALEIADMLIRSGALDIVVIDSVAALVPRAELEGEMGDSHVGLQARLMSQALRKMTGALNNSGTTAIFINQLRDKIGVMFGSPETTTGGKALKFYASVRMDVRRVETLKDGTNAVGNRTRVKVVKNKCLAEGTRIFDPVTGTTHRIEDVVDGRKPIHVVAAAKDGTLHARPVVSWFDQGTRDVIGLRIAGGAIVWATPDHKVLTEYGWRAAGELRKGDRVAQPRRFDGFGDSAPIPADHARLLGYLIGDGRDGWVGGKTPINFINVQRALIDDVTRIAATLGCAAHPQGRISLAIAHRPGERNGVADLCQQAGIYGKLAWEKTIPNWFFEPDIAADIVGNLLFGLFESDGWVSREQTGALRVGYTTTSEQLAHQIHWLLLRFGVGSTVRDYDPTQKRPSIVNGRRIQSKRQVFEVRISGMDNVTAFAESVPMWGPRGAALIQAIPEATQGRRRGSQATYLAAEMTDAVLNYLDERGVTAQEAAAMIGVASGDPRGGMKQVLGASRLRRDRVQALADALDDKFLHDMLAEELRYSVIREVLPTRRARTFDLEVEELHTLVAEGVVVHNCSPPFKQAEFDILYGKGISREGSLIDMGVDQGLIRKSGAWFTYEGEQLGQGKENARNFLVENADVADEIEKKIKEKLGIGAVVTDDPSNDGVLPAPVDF
# Arbovirus inh repeat: further read-out of Arbovirus inh, marked with its call; inhibition, %; measured here: 10K subset replicate screen; many hits read low in the repeat;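 first of two repeat runs on a subset; 0% = infected and 100% = uninfected wells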
# * = called active by the depositor; ? = inconclusive; . = not tested or not shown. These rows are one share of the data. The share of hits here may be higher or lower than overall.
# The opening 4 entries as a preview:
SMILES,Mtb bLac sens,YopH inh,Mtb growth,Arbovirus inh,RecA splice inh,others
NS(=O)(=O)c1ccc(CNC(=O)c2cc(=O)c3cc(Cl)ccc3o2)cc1,8,.,.,.,-1.7,
CC(C)Cc1nc2n[nH]c(N)c2c2c1CCCC2,-4,-15,-1%,-3,7.0,
CC(C)C[C@H](NC(=O)c1[nH]cnc1C(=O)Nc1ccc(CNC(=O)OC(C)(C)C)cc1)C(=O)OCc1ccccc1,-14,.,23%,.,5.4,
O=C(O)C(F)=C(c1ccccc1)c1ccccc1,-5,.,.,.,1.9,

# All compounds of this part, from the first entry:
SMILES,Mtb bLac sens,YopH inh,Mtb growth,Arbovirus inh,RecA splice inh,others
NS(=O)(=O)c1ccc(CNC(=O)c2cc(=O)c3cc(Cl)ccc3o2)cc1,8,.,.,.,-1.7,
CC(C)Cc1nc2n[nH]c(N)c2c2c1CCCC2,-4,-15,-1%,-3,7.0,
CC(C)C[C@H](NC(=O)c1[nH]cnc1C(=O)Nc1ccc(CNC(=O)OC(C)(C)C)cc1)C(=O)OCc1ccccc1,-14,.,23%,.,5.4,
O=C(O)C(F)=C(c1ccccc1)c1ccccc1,-5,.,.,.,1.9,
COCCCN=C(c1ccco1)n1c(=S)nc(-c2ccco2)n(CCCOC)c1=S,1,5,-6%,7,1.5,
Cc1ccc(/C(N)=N/OC(=O)c2ccc3c(c2)OCO3)cc1,9,-20,-2%,-3,0.2,
COCCn1c(Cc2ccccc2)nnc1SCC(=O)NC1CCCCC1,0,.,.,.,-0.4,
CC/C(=N\NC(=O)c1csc(C)c1C)c1cccs1,24,18,-4%,2,-1.0,
Cc1nnc(SCC(=O)Nc2nc(C(C)(C)C)cs2)s1,-1,-1,-12%,11,-1.9,
CCOC(=O)C1=C(C)NC(=O)NC1,-6,-31,-3%,9,-3.7,
CCCCn1c(CCC(=O)O)nc2cc(S(=O)(=O)N(C)C)ccc21,11,.,-1%,-3,-1.0,
CCOc1ccccc1NC(=O)CN1C(=O)CSC(C)C1=O (centres undefined),-4,.,3%,9,1.2,
Cc1ccc(C(=O)N2CCSCC2)cc1,1,-21,-4%,0,0.6,
COc1ccc(N2CCN(C(c3cc(OC)ccc3OC)c3nnnn3Cc3ccco3)CC2)cc1 (centres undefined),0,-17,-11%,-7,6.1,
N/C(=N\OC(=O)COc1ccc(Cl)cc1Cl)c1ccncc1,.,.,7%,-29,.,
COc1ccc(CN2C(=O)NC3(CCCCC3)C2=O)cc1F,-4,-15,-4%,0,-1.8,
C=CCOC(=O)C1=C[C@@H](c2ccc(C(F)(F)F)cc2)C[C@@H](OCCCCO)O1,2,.,-3%,.,3.2,
O=C(CC(C(=O)O)c1ccc(F)cc1)c1ccc(Cl)cc1 (centres undefined),-10,.,.,.,-4.0,
Cc1cc(C)nc(Sc2ncnc(N)c2[N+](=O)[O-])n1,95,.,47%,-10,4.7,
CCOC(=O)c1c(NC(=O)CSc2nnc(CNc3ccc(F)cc3)o2)sc(C)c1C,-3,-33,3%,-1,2.4,
CCCCC1C2C(=O)N(c3ccc(C)cc3)C(=O)C2ON1c1ccccc1 (centres undefined),-5,.,-8%,.,.,
CCOC(=O)Cn1c(=O)oc2cc(S(=O)(=O)N3CCCC(C(=O)OCC)C3)ccc21 (centres undefined),6,-36,-13%,-2,-5.5,Arbovirus inh repeat=1
COC(=O)c1ccc(-c2noc(CN(C)CC3CCCCO3)n2)cc1 (centres undefined),-15,.,21%,11,-1.0,
Cc1cc(C)c(S(=O)(=O)NCCc2ccccc2)c(C)c1,-4,.,4%,-9,4.2,
CCCCn1c(O)c(C(C)=Nc2ccc(OCC)cc2)c(=O)[nH]c1=O,-13,-30,5.5µM*,-4,-1.4,
O=C(CN1CCN(c2ncccn2)CC1)Nc1ccccc1C(F)(F)F,-1,.,6%,4,2.9,
C/C(=N\NC(=O)c1cccnc1)c1ccc(Br)cc1,-10,.,.,.,-0.7,
O/N=C1/CCCSc2ccccc21,4,-34,-3%,6,2.1,Arbovirus inh repeat=0
O=c1cnnc(NCc2ccccc2)[nH]1,-13,-20,3%,-1,-0.2,
COc1cccc2c(=O)cc(C)n(CC(=O)Nc3cccc(C)c3)c12,-3,-9,3%,8,1.5,
Cn1c(N2CCCC2)nc2c1c(=O)[nH]c(=O)n2C,-12,.,.,.,0.9,
c1ccc(Oc2c3ccccc3nc3ccccc23)cc1,37,.,.,.,-11,
N#Cc1ccccc1CN1C(=O)S/C(=C/c2cccn2-c2cccc(C(=O)O)c2)C1=O,23,17,5%,9,6.0,
O=S(=O)(c1cccc(-c2cn3ccccc3n2)c1)N1CCCC1,-2,.,.,.,1.5,
OCC1(CCCc2ccccc2)CCN(Cc2cnc(N3CCOCC3)s2)CC1,5,.,6%,-8,3.3,
Cc1ccc(NC(=O)Cn2c(=O)n(Cc3ccco3)c(=O)c3ccccc32)c(C)c1,2,-27,-8%,-2,-0.9,
CC1CN(c2nc3ccccc3nc2SCC(=O)Nc2ccc(F)cc2)CC(C)O1 (centres undefined),-5,.,.,.,9.1,
O=C(NNC(=O)c1cccs1)c1ccc(Cl)cc1,-3,-42,1%,-1,-0.3,
Cn1ccnc1SC(C(=O)O)c1ccccc1 (centres undefined),3,.,.,.,-2.1,
COc1ccc(F)cc1S(=O)(=O)n1cnc2ccccc21,6,.,.,.,4.3,
CC(=O)C1=C(O)C(=O)N(CCC(=O)O)C1c1ccccc1Cl (centres undefined),.,-31,-2%,21,2.4,
CCC(NC(=O)c1oc2ccccc2c1COC)c1ccc(OC)cc1 (centres undefined),-4,.,.,.,7.3,
O=C(NCc1ccccc1)C1CCN(S(=O)(=O)N2CCCCCC2)CC1,-3,-6,-3%,-5,0.4,
COc1ccc2nc3oc(C(=O)N4CCC5(CC4)OCCO5)cc3cc2c1,4,.,6%,14,0.6,
Fc1ccccc1-c1n[nH]c(=S)n1/N=C/c1c[nH]c2ccccc12,1,.,.,.,3.1,
CNC(=O)C(=O)Nc1cc2c3c(c1)CCN3C(=O)CC2,-1,.,.,.,0.9,
COc1ccc(-c2c(C)[nH]n3c(=O)c(Cc4ccccc4)c(C)nc23)cc1OC,-4,.,39%,-10,4.1,
Cc1[nH]c2ccccc2c1C(=O)CN1CCN(c2ccc(Cl)cc2)CC1,2,.,.,.,-0.9,
CC1(C)Cc2c(C#N)c(SCC(=O)c3ccccc3)nc(N3CCOCC3)c2CS1,14,-2,?,-20,4.8,
Cc1nnc(NC(=O)c2ccc(-c3ccc([N+](=O)[O-])cc3)o2)s1,-5,.,.,.,4.0,

# Carrying on:
SMILES,Mtb bLac sens,YopH inh,Mtb growth,Arbovirus inh,RecA splice inh,others
Nc1ccncc1Cl,-3,.,-2%,11,.,
Cc1cc(C)n(CC(=O)O)c(=O)c1[N+](=O)[O-],-14,.,-4%,4,-5.8,
Cc1cccc2c(C(=O)n3cccn3)cc(-c3ccccc3Cl)nc12,.,-5,7%,-3,3.3,
CC(C)(C)Nc1nc(N)nc(Cl)n1,2,.,2%,4,-0.5,
S=C1NC[C@H](CC2CCCCC2)N1CCCCC1CCCCC1,6,.,15%,.,0.6,
COc1ccc(OC)c(NC(=O)c2cc(S(=O)(=O)N3CCCC3)cn2C)c1,1,.,.,.,-0.7,
O=C(Cc1ccccc1)N1N=C(c2ccncc2)CC1(O)C(F)(F)F (centres undefined),-7,.,2%,.,2.4,
CCOC(=O)CNC(=O)CSc1nnc(-c2ccccc2)c(-c2ccccc2)n1,7,.,-8%,-6,-3.8,
COc1ccc(N(C(=O)c2cccc(OC)c2OC)C2C=CS(=O)(=O)C2)c(OC)c1 (centres undefined),0,7,0%,3,0.9,
COc1ccc(CNC(=O)c2cc(=O)c3ccccc3o2)cc1,-1,.,.,.,-2.7,
Cc1cc(NC(=O)CSc2nnnn2-c2ccc(C(C)C)cc2)no1,14,.,.,.,-0.6,
O=C(CCN1C(=O)c2ccccc2S1(=O)=O)Nc1cccc2ccccc12,16,.,-7%,5,-1.5,
O=C(CCN1CCOCC1)Nc1ccc(Cl)cc1,-5,.,.,.,-1.3,
Cc1onc(-c2ccccc2)c1C(=O)N1CCOCC1,2,-27,-4%,1,0.8,
Nn1c(SCc2ccc(F)cc2)nnc1-c1ccccn1,21,.,-1%,.,-0.3,
CCNC(=O)c1c(C)[nH]c(C(=O)OCC)c1C,-4,-13,-1%,1,1.6,
CCOc1ccc(OCCn2c(=S)[nH]c3c(N)ncnc32)cc1,-2,.,-8%,7,0.1,
O=C(Cc1ccc(S(=O)(=O)N2CCOCC2)s1)Nc1nc2c(s1)CCCC2,-17,-19,-1%,15,0.8,
FC(F)(F)c1ccc(NC(=S)NC2CCCCC2)cc1,94,.,70%,-4,0.4,
COc1ccc(NC(=O)CC2C(=O)N(c3ccc(Cl)cc3)C(=S)N2NC(=O)c2cccc(F)c2)cc1 (centres undefined),-1,-34,1%,13,-2.2,
O=C(Nc1ccccc1)N1CCC(O)(c2cccc(C(F)(F)F)c2)CC1,3,.,.,.,-0.7,
O=C(COC(=O)c1ccccc1[N+](=O)[O-])Nc1cccnc1Cl,-5,.,.,.,-1.7,
O=C(CNC(=O)c1cccs1)N/N=C/c1cccc(Cl)c1,4,.,.,.,0.2,
Cc1cc(SCC(=O)c2ccccc2)nc(C)n1,-5,-27,-7%,0,1.8,
COCCCn1c(=S)[nH]c2sc3c(c2c1=O)CCCS3,1,.,1%,3,-7.4,
CCC/C(=N\NC(=O)C1CCCC1)c1ccccc1,6,.,.,.,0.6,
Cc1ccccc1NC(=O)c1cc(C(=O)c2cc(Cl)ccc2O)cn(-c2ccccc2C)c1=O,94,-7,?,-10,-1.0,
CC(C)NC(=S)N/N=C1\CCCc2ccccc21,-2,.,1%,1,-1.2,
Cc1ccc(NC(=O)CNCc2ccccc2Cl)cc1S(=O)(=O)N(C)C,5,.,.,.,0.8,
COc1cccc(N2C(=O)Nc3ccc(Br)cc3C2(O)C(=O)NCCCOC(C)C)c1 (centres undefined),-2,.,.,.,0.6,

# Reprinted from above, 3 compounds:
SMILES,Mtb bLac sens,YopH inh,Mtb growth,Arbovirus inh,RecA splice inh,others
CC(C)NC(=S)N/N=C1\CCCc2ccccc21,-2,.,1%,1,-1.2,
Cc1ccc(NC(=O)CNCc2ccccc2Cl)cc1S(=O)(=O)N(C)C,5,.,.,.,0.8,
COc1cccc(N2C(=O)Nc3ccc(Br)cc3C2(O)C(=O)NCCCOC(C)C)c1 (centres undefined),-2,.,.,.,0.6,

# Next section.
SMILES,Mtb bLac sens,YopH inh,Mtb growth,Arbovirus inh,RecA splice inh,others
CC(=O)c1cc2c(cc1NC(=O)CN1CCC(Cc3ccccc3)CC1)OCO2,-5,-21,3%,-6,-0.9,
Cc1cc(SCc2ccc(Cl)cc2)nc(=O)[nH]1,-8,.,.,.,0.3,
O=C(Cc1ccccc1F)Nc1ccc(Cl)nc1,-16,-24,-2%,-3,1.8,
Cc1ccc(-c2nnc(SCC(=O)N(C)C)nc2-c2ccc(C)cc2)cc1,5,.,.,.,2.8,
COc1ccc(-c2cc(C(F)(F)F)n3nc(C(=O)NCCN4CCOCC4)cc3n2)cc1,-7,.,-3%,3,-39,
COc1cc(C(C2C(=O)CC(C)(C)CC2=O)C2C(=O)CC(C)(C)CC2=O)cc(OC)c1OC,12,.,.,.,-3.5,
CCOc1ccccc1/C=N/NC(=O)c1nnn(-c2nonc2N)c1CN1CCC(C)CC1,-6,.,.,.,0.7,
CS(=O)(=O)N(CC(=O)Nc1ccc2c(c1)OCO2)Cc1ccc(Cl)cc1,6,-23,6%,0,7.5,
CCN(CC(=O)NCCc1ccccc1)S(=O)(=O)c1ccc(C)cc1,2,-10,8%,2,1.4,
O=C(Cn1cncn1)c1ccc(Cl)cc1,2,.,.,.,-1.3,
COc1cc(NS(=O)(=O)c2cc(C(=O)N3CCN(C(C)=O)CC3)ccc2OC)cc(OC)c1,-4,.,0%,18,1.7,
COCCN(C(=O)CCCC(=O)Nc1ccccn1)C(C(=O)NC1CCCC1)c1ccc(C)cc1 (centres undefined),-8,-44,1%,1,-5.0,
c1ccc2sc(NC3=NCN(C4CCCCC4)CN3)nc2c1,.,-8,-7%,4,-3.1,
CC(C)(C)NC(=S)NC(=O)C12CC3CCC(CC(C3)C1)C2,2,-24,10%,8,-1.0,
Cc1cccc(N2CCN(C(=O)c3ccc(-n4cncn4)c([N+](=O)[O-])c3)CC2)c1C,14,.,.,.,-2.6,
CCC(=O)N1CCc2cc(S(=O)(=O)CCC(=O)NCc3cccc(OC)c3)ccc21,-2,.,.,.,-0.9,
CC(C)(C)NCC(O)COc1ccc(Br)cc1 (centres undefined),1,.,8%,-20,-5.9,
O=C(CC(Sc1n[nH]c(-c2ccccc2)n1)c1ccccc1)NCc1ccccc1 (centres undefined),-5,-18,-4%,-4,0.0,
COc1ccc(-c2cc(-c3ccc(OC)cc3)nc(-c3ccc4c(c3)NC(=O)CO4)c2)cc1,97,-13,4%,-6,-0.4,
